2A StopGo: lowers the luciferase signal of an FMDV 2A StopGo reporter; 1.2% of 410,000 active; AID 1159524; Potency, µM (doses to about 57.9 µM), without a hit: at the highest dose signal change, negative = less light; human cells with a luciferase reporter of 2A StopGo recoding; control for the full effect not named in the record; active = well fitted falling curve with a large enough effect; inconclusive = small, poorly fitted or top-dose-only effect; inactive = no such curve, though single readings can be large or run the other way; tested in HEK293T cells; also: % is scaled to controls: 0 for no effect and ±100 for the full control effect; nearly all actives have a fitted effect of over 45% in size; luciferase light after 4 h
SARS PLpro yeast: inhibitors of SARS-CoV papain-like protease in yeast; S. cerevisiae expressing SARS-CoV PLpro, growth rescue; control for the full effect not named in the record; Potency, µM (highest dose often 32.9 µM), inactives show top-dose activity, positive = growth rescue; 0.19% of 330,000 active; also: 0% is about no effect; nearly all actives have a fitted effect of over 55% in size; growth read by luminescence after 48 h
NS1 function inh: blocks influenza NS1 protein function. S. cerevisiae slowed by influenza A NS1, growth recovery by OD600. Potency, µM (top dose mostly 46.1 µM), for inactives: at the highest dose activity, positive = more growth. 0.4% of 270,000 active. AID 2326; also: actives are rising curves; nearly all actives have a fitted effect of over 50% in size
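OD600 was taken as the measure of yeast growth restored by compound in an NS1-expressing S. cerevisiae strain. Cells had been washed out of glucose medium and diluted 1:100 into galactose -URA medium, pH 6.0.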
Cruzain inh Det: inhibitors of Trypanosoma cruzi cruzain with detergent; P25779; purified cruzain, Z-FR-AMC fluorescence, 0.01% Triton; Potency, µM, without a hit: max response, negative = inhibition, hits mostly inhibitors; 0.43% of 200,000 active; AID 1478; active = well fitted curve in the direction sought with a large enough effect; inconclusive = small, poorly fitted or top-dose-only effect, or another doubt; inactive = no such curve, though single readings can be large; an effect the other way counts as inactive or inconclusive;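 also: plate controls were neutral wells for no effect and buffer without enzyme for full effect; nearly all actives have a fitted effect of over 40% in size; top concentration of the series not given in the record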
Target sequence (P25779 123-467 limits assumed): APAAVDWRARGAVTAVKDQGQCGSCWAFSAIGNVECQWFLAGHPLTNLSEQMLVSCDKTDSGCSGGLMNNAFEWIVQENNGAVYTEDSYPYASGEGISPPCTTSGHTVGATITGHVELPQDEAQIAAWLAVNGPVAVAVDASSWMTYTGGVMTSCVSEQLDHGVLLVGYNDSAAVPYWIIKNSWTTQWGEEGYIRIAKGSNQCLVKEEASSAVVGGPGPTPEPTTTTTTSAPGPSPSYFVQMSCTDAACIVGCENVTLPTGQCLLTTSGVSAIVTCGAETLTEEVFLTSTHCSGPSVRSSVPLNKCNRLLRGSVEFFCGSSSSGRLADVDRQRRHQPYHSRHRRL
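Detergent-containing arm of a paired screen for aggregation-based inhibition: 0.01% Triton X-100 present. Cruzain at 1.5 nM cleaved 2 uM Z-FR-AMC at pH 5.5 with 5 mM DTT; AMC fluorescence gain over 60 s measured activity.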
LASV entry inh: blocks Lassa virus binding to or entry into cells; Potency, µM (doses to about 37.9 µM), for inactives: at the top dose activity change, negative = inhibition, hits mostly inhibitors; 1.2% of 300,000 active; Lassa virus pseudotype entry inhibition, cell reporter; control for the full effect not named in the record; AID 540256; active means well fitted inhibition curve with a large enough effect; inconclusive means small, poorly fitted or top-dose-only effect, or effect the other way; inactive means flat fitted curve, though single readings scatter; tested in HEK293 cells; also: % is scaled to controls: 0 for no effect and ±100 for the full control effect; nearly all actives have a fitted effect of over 50% in size; luciferase read-out
Marburg entry inh: blocks Marburg virus binding to or entry into cells | Marburg virus pseudotyped entry inhibition, cell reporter; control for the full effect not named in the record; about a third of the inactives were read at about 46 µM | Potency, µM (series often up to 37.8 µM), without a hit: at the top dose activity change, negative = inhibition, most hits filed as inhibitors | 1.8% of 300,000 active | AID 540276; active = well fitted inhibition curve with a large enough effect; inconclusive = small, poorly fitted or top-dose-only effect, or effect the other way; inactive = flat fitted curve, though single readings scatter; tested in HEK293 cells; about a fifth of its hits are not listed in these tables; also: % is scaled to controls: 0 for no effect and ±100 for the full control effect; luciferase read-out
Cruzain noTriton: inhibitors of Trypanosoma cruzi cruzain without detergent. purified cruzain, Z-FR-AMC fluorescence, no detergent. Potency, µM, for inactives: max response, negative = inhibition, usual class: inhibitors. 2.3% of 200,000 active. AID 1476; active = well fitted curve in the direction sought with a large enough effect; inconclusive = small, poorly fitted or top-dose-only effect, or another doubt; inactive = no such curve, though single readings can be large; an effect the other way counts as inactive or inconclusive;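 also: plate controls were enzyme without inhibitor for no effect and buffer without enzyme for full effect; nearly all actives have a fitted effect of over 40% in size; top concentration of the series not given in the record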
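Detergent-free condition (0.00005% Triton X-100) in acetate buffer pH 5.5 with DTT. 1.5 nM enzyme and compound were pre-mixed 15 min, then 2 uM Z-FR-AMC substrate added; reaction progress from fluorescence change between first and third reads (60 s).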
RE007 growth inh: less growth of the S. pombe RE007 Vpr strain | S. pombe RE007 Vpr strain, BacTiter-Glo ATP luminescence, 24 h; control for the full effect not named in the record | Potency, µM (series often up to 92.2 µM), without a hit: at the top dose activity change, negative = less growth | 0.21% of 360,000 active | AID 651644; active = well fitted falling curve with a large enough effect; inconclusive = small, poorly fitted or top-dose-only effect; inactive = no such curve, though single readings can be large or run the other way;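 also: % is scaled to controls: 0 for no effect and ±100 for the full control effect; nearly all actives have a fitted effect of over 50% in size; the assay follows cell death caused by Vpr and the record does not say whether a fall means rescue or toxicity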
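Fission yeast RE007 carrying one integrated HIV-1 vpr copy, seeded at OD 0.01 in PMG+AL medium with 23 nL pinned compound. Grown 24 h at 30 degrees; viability read by BacTiter-Glo luminescence after 5 min.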
Numbers without * were called inactive; ? = inconclusive; / = no result given; & = joins results of further samples; [ ] = another dose, or the depositor's remark. Unless noted, calls follow the shape of the dose curve; as a rule, active means well fitted rising curve with a large enough effect; inconclusive means small, poorly fitted or top-dose-only effect; inactive means no such curve, though single readings can be large or run the other way. Potency is read from the fitted curve at half-maximal effect.

Values run as follows: Cruzain noTriton | Marburg entry inh | Cruzain inh Det | NS1 function inh | 2A StopGo | SARS PLpro yeast | RE007 growth inh | LASV entry inh
O=C1C2=C(CCCC2)C(=O)N1CNc1ccccc1
  / | / | / | -2.9% | -0.9% | 0.3% | 0.1% | /
CCOc1ccc(NC(=O)N2CCCC2C(=O)NCC2CCCO2)cc1 (stereo not given)
  / | ? | / | -0.9% | 4.7% | 0.9% | 1.8% | 0.9%[46.1 µM]
CC(C)c1nc2cc(C(=O)N(C)C3CCOCC3)ccc2o1
  / | 5.9% | / | -1.9% | 25.3% | ? | 0.9% | 7.3%
CN(Cc1cccc2cnccc12)C(=O)CCc1nnc(CCc2ccccc2)o1
  / | 12.0%[46.1 µM] | / | 3.5% | 28.3% | -0.4% | -4.6% | 4.5%
CN(C)C(=O)COc1ccc2cc(-c3ccccc3)c(=O)oc2c1
  ? | ? | 28.2µM* | -4.5% | 54.0%[activator] | 1.1% | -3.9% | 21.6%
CCCCOc1ccc(CN2CCCCC2)cc1
  -8.3% | ? | 5.5% | 3.8% | / | 3.0% | -5.3% | 11.1%
CC(C)(C)n1nnnc1CN1CCN2CCCC2C1 (stereo not given)
  -8.6% | ? | 3.7% | 4.6% | -8.5% | 5.0% | 9.1% | -8.2%
Cc1ccc2c(c1)C(=O)CC(c1ccc3c(c1)OCCO3)O2 (stereo not given)
  / | / | / | -3.8% | 45.2%[activator] | -4.5% | 1.9% | /
O=C(Cc1ccsc1)NNC(=O)c1cccc(Cl)c1
  / | / | / | 12.6% | 16.1% | 1.2% | 5.6% | /
CCOC(=O)c1c(/N=C/c2cccc([N+](=O)[O-])c2O)sc(C)c1C
  -7.1% | 13.3% | -10.0% | -51.5% | -9.3% | -53.5% | ? | -29.9%
CNCCCOc1cc(C)cc(C)c1C
  / | ? | / | -3.0% | -16.9% | 0.7% | 8.1% | -5.5%[46.1 µM]
Cc1cc(NC(=O)c2nn(C)c(C)c2Br)no1
  / | / | / | -6.5% | 71.9%[activator] | -4.3% | -12.5% | /
Cc1csc(NC(=O)CN2C(=O)c3ccccc3C2=O)c1C(N)=O
  / | / | / | 9.2% | 7.2% | -3.6% | 9.4% | /
O=C(Nc1nccs1)c1ccc2ccccc2c1
  / | / | / | -27.9% | 0.0% | 2.3% | ? | /
COC(=O)CCCCCN1C(=O)NC(c2ccc(-c3ccccc3)cc2)C(C(=O)OCc2ccccc2)=C1C (stereo not given)
  -28.5%&9.0% | -9.5% | -1.8%&-4.0% | -4.4% | -19.6% | 6.0% | -13.2% | ?
Cc1cccc(C(=O)Nc2ccc3nc(SCC(=O)N4CCCC4)sc3c2)c1
  ? | 16.3%[46.1 µM] | -10.6% | / | ? | / | / | -10.0%[46.1 µM]
CN(C)S(=O)(=O)c1c(Cl)cccc1Cl
  12.4% | 6.1% | 0.5% | 4.1% | 10.0% | -9.3% | 13.8% | 1.0%
CCCCC(=O)OC1=C(C(=O)c2ccccc2)N(C)S(=O)(=O)c2ccccc21
  5.7% | ? | 2.2% | / | -26.8% | / | / | -18.9%[46.1 µM]
Cc1ccc(-n2c(=O)[nH]c3c(C(N)=O)nc(-c4ccc(C)o4)nc32)cc1
  ? | ? | -0.5% | ? | -1.8% | 0.5% | 1.3% | ?
COc1ccc(-c2noc(Cn3cc(S(=O)(=O)N4CCCC4)ccc3=O)n2)cc1
  / | / | / | / | -3.9% | -2.1% | -12.5% | 12.7%
Cc1ccc(-c2c(C(=O)N/N=C/c3sccc3C)nnn2-c2nonc2N)cc1
  / | / | / | 3.4% | -21.6% | -2.8% | 1.7% | /
CCOC(=O)n1c(=O)n(Cc2ccc(F)cc2)c2ccccc21
  / | -20.3%[46.1 µM] | / | / | -10.3% | -8.8% | 20.9% | ?
Cc1cc(N2CCN(S(=O)(=O)c3ccc(Br)cc3)CC2)n2ncnc2n1
  / | -0.9%[46.1 µM] | / | -3.7% | -29.0% | 1.1% | 37.1% | -9.0%
COCCNc1nnc(SCC(=O)NNC(=O)c2ccccc2)s1
  / | 1.9% | / | 5.7% | 7.4% | 0.9% | 4.4% | -3.1%
O=C(NC1CCCCC1)c1cnn2c(C(F)(F)F)cc(-c3ccco3)nc12
  -8.0% | ? | -9.5% | -35.6% | -3.3% | -0.9% | 3.1% | -22.3%
COc1ccc(N(CCCN2C(=O)c3cccc4cccc(c34)C2=O)C(=O)c2cccnc2)cc1
  / | ? | / | / | -27.1% | -0.2% | 2.7% | ?
CCCCOP(=O)(OCCCC)C1(NS(=O)(=O)c2ccccc2)C=CC(=O)c2ccccc21 (stereo not given)
  28.0% | ? | -7.0% | -11.5% | 11.2% | -2.6% | -10.5% | ?
O=C(CN(C(=O)c1csnn1)c1ccccc1F)NCc1ccc2c(c1)OCO2
  / | -6.1%[46.1 µM] | / | -2.9% | 19.2% | -6.9% | -0.7% | /
Cc1ccc(Cl)cc1N1CCN(C(=O)CCCn2c(=O)[nH]c3ccc(Br)cc3c2=O)CC1
  -2.6% | ? | -3.8% | / | ? | / | / | -7.6%[46.1 µM]
CCOc1ccc(OCC)c(NC(=O)CN2CCN(c3cccc(C)c3C)CC2)c1
  -4.3% | ? | -4.3% | -6.1% | -21.8% | -27.4% | 5.0% | 3.8%

Exported field by field: part of the list above.
CNCCCOc1cc(C)cc(C)c1C
  Cruzain noTriton: /	Marburg entry inh: ?	Cruzain inh Det: /	NS1 function inh: -3.0%	2A StopGo: -16.9%	SARS PLpro yeast: 0.7%	RE007 growth inh: 8.1%	LASV entry inh: -5.5%[46.1 µM]

O=C(NC1CCCCC1)c1cnn2c(C(F)(F)F)cc(-c3ccco3)nc12
  Cruzain noTriton: -8.0%	Marburg entry inh: ?	Cruzain inh Det: -9.5%	NS1 function inh: -35.6%	2A StopGo: -3.3%	SARS PLpro yeast: -0.9%	RE007 growth inh: 3.1%	LASV entry inh: -22.3%

Cc1ccc2c(c1)C(=O)CC(c1ccc3c(c1)OCCO3)O2 (stereo not given)
  Cruzain noTriton: /	Marburg entry inh: /	Cruzain inh Det: /	NS1 function inh: -3.8%	2A StopGo: 45.2%[activator]	SARS PLpro yeast: -4.5%	RE007 growth inh: 1.9%	LASV entry inh: /

(listing goes on)
Values run as follows: Cruzain noTriton | Marburg entry inh | Cruzain inh Det | NS1 function inh | 2A StopGo | SARS PLpro yeast | RE007 growth inh | LASV entry inh
CCC(CC)C1C(C#N)=C(N)Oc2c1c(=O)oc1ccccc21 (stereo not given)
  -5.3% | -12.6% | -13.0% | 1.3% | -11.3% | -15.7% | 0.0% | -24.4%
CC1CCN(c2nc3c(c(=O)n(C)c(=O)n3C)n2CCSc2ncccn2)CC1
  -3.6% | / | 2.4% | -4.1% | -7.8% | -2.3% | 1.9% | /
CC1=CC(=O)C(C(C)C)=C/C1=C(\c1cc(C(C)C)c(OP(=O)(O)O)cc1C)c1ccccc1C(=O)O
  / | ? | / | 0.6% | -1.6% | 2.1% | 2.7% | ?
COc1cc(CNC(=O)CCCC/C=C\C(C)C)ccc1O
  ? | / | -6.7%&-6.5%&2.2% | / | 13.6%&-11.8% | -1.5% | / | /
Cc1nnc(SCCn2c(N3CCCC(C)C3)nc3c2c(=O)[nH]c(=O)n3C)s1 (stereo not given)
  7.7% | 11.1% | 0.0% | -2.3% | -24.1% | 1.3% | -1.6% | ?
COc1cccc(CNC(=O)c2nnn(-c3ccc(OC(F)(F)F)cc3)c2N)c1
  7.2% | -1.7% | -0.2% | 0.6% | ? | 7.0% | -2.9%[3.69 µM] | -15.2%
COc1ccc(N2CCN(C(=O)c3ccc(C)c(NC(=O)c4ccco4)c3)CC2)cc1
  / | -18.4% | / | 15.6% | -25.4% | 0.1% | -17.3% | -8.2%
COC(=O)C(C(=O)NCC1CCCO1)C1CCCCCC1 (stereo not given)
  -1.0% | 4.9% | -2.6% | 1.0% | -20.8% | 4.4% | 0.6% | 7.0%
COc1cccc(-c2cnc(OC(C)(C)C)nc2OC(C)(C)C)c1
  2.6% | -28.2% | -4.3% | -10.3% | -19.3% | 2.4% | -13.0% | -0.4%
N/C(=N\OC(=O)N1CCOCC1)c1ccccc1
  -5.5% | ? | 0.8% | 12.8% | / | -12.7% | -21.3% | 11.6µM*
CC(C)(C)c1cc(NC(=O)CCSc2nnc3ccccn23)cc(C(C)(C)C)c1
  / | ? | / | / | -16.9% | / | -5.0% | -25.7%
O=C(Cc1cn2ccsc2n1)OCc1nc2ccccc2s1
  -5.5% | -1.4%[46.1 µM] | 0.7% | -9.7% | -1.9% | -0.3% | -15.6% | 5.1%
COc1ccc(-c2cccc(C3CC=CC4C3C(=O)N(Cc3ccccc3)C4c3ccc(C(F)(F)F)cc3)c2)cc1 (stereo not given)
  / | / | / | -4.5% | -10.6% | 1.6% | 21.7% | /
COc1ccc(N2CCN(C(=S)NCCc3ccccc3)CC2)cc1
  / | -10.2% | / | / | -9.1% | / | -2.9% | -6.3%
COc1ccccc1OCC(=O)NCCSCc1cccc(Cl)c1
  -6.3% | -1.1% | -12.0% | -16.3% | -18.0% | -29.2% | 14.2% | -0.5%
CCOC(=O)C1(C(=O)O)NC(=O)CC1c1ccccc1 (stereo not given)
  -3.5% | ? | 9.3% | -8.2% | 13.3% | 1.9% | -6.5% | 9.2%
Cc1ccc2cc(CN(Cc3cccs3)C(=O)c3ccco3)c3nnnn3c2c1C
  -7.3% | 7.1% | 1.1% | -12.3% | / | 2.4% | / | 0.9%
Cc1ccc(CN2CCCN(Cc3ccc(C)cc3)S2(=O)=O)cc1
  / | -1.6%[46.1 µM] | / | -8.9% | 31.4%[activator] | -6.2% | 2.0% | 4.8%[46.1 µM]
Cc1ccc(NC(=O)c2cc(N3C(=O)C4CCCCC4C3=O)ccc2N2CCOCC2)cc1 (stereo not given)
  / | / | / | -6.4% | 29.2% | 0.2% | ? | /
O=c1c(CN2CCN(Cc3ccccc3F)C(CCO)C2)coc2ccccc12 (stereo not given)
  / | -11.9% | / | 0.2% | 0.4% | -1.4% | -6.3% | 22.0%

Bioassay records deposited in PubChem by National Center for Advancing Translational Sciences (NCATS).
